Bfl-1 A1 inh – caspase 3/7 activation in MEF A1-2A-BIM cells, primary screen, A1 inhibitor project, cell-based, luminescence, HTS; Caspase-Glo 3/7 luminescence, 3 h; percent of clofoctol response, vehicle zero; caspase activation, % (concentration not given with the values); 330,000 compounds, 0.066% hits; AID 2462, 2010;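 active = over half of replicate activation scores above 10%, or exactly half above 10 with the replicate mean above 10; inconclusive = replicate mean below 10 yet half the replicates above 10; inactive = over half of replicates below 10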;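 note: wells of about 30 µL received 50 nL stock; many hits fall short of the cut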
Ecoli rRNA inh – reduced GFP signal of wild-type E. coli, primary screen, bacterial rRNA inhibitor project, GFP/RFP fluorescence, OD600, single point; E. coli WT GFP vs humanized-ribosome RFP mutants, 24 h; active compounds read low; DMSO median 0, no signal -100; GFP signal change (wild-type ribosome), % (no concentration beside the values); 350,000 compounds, 1.6% hits;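 active = significant combined selectivity score with lowered wild-type GFP, culture density cut under 30%, mutant RFP and density less affected; inactive = any of these conditions unmet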; note: one replicate is shown; some compounds called inactive have numbers as strong as hits
T cruzi repl – inhibitors of intracellular T. cruzi growth, primary screen, luminescence, NIH3T3 host cells | T. cruzi beta-gal in NIH3T3, 90 h | inhibition, % (concentration not given with the values) | 300,000 compounds, 1.4% hits | AID 1885, 2009;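 active = mean inhibition across valid replicates above about 55%, limit read from the data; inconclusive = mean below that limit but half or more replicates reach it; inactive = mean below it, under half of replicates reach it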;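 note: signal also drops with host cell toxicity which is not excluded here; 0% = plate median of DMSO wells and 100% = zero luminescence signal; higher percent means less beta-gal luminescence so fewer parasites; stock transfer was 50 nL into about 50 µL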
B2AR ag – beta2AR agonists driving receptor internalization, primary screen, cell-based, FAP fluorogen, flow cytometry; 340,000 compounds, 0.43% hits; response, % (no concentration beside the values); Am2.2-beta2AR cells; reference of the scale not given here; Beta-2 adrenergic receptor (Homo sapiens), P07550;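 active = response above a set limit, near 3 SD of response in nonfluorescent compounds, cut at about 42% in these data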;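 note: stock transfer was 100 nL into about 11 µL; a reference agonist was the positive control; negative values mostly stem from fluorescent compounds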
Target sequence (P07550 whole entry, looked up): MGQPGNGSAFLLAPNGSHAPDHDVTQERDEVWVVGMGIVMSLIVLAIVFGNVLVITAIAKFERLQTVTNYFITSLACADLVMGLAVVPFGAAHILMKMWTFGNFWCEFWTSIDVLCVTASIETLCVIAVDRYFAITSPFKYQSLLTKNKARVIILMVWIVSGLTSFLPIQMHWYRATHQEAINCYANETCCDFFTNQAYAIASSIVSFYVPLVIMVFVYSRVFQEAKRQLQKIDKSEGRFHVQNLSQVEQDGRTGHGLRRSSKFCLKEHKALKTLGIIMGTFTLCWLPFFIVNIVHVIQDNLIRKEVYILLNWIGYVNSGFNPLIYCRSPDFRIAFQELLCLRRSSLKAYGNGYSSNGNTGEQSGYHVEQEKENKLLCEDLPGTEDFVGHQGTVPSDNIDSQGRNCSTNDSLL
Calb FLC – C. albicans growth inhibition with fluconazole, primary screen, CaCi-2 strain, Alamar Blue fluorescence | C. albicans CaCi-2 (fluconazole-resistant clinical isolate) + fluconazole, 48 h | growth inhibition, % (concentration not given with the values) | 300,000 compounds, 0.57% hits;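 active = most replicates above 75%; inconclusive = exactly half above 75%; inactive = most below 75%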;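 note: all wells also contain fluconazole at 8 µg/ml as a sub-toxic cotreatment; 0% = median of DMSO wells and 100% = median of geldanamycin control wells; wells of about 8 µL received 7.5 nL stock; the first replicate is given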
Beta cell apopt – inhibitors of cytokine-induced beta cell apoptosis, primary screen, luminescence; INS-1E cytokine-induced death, ATP luminescence, 48 h; percent of positive-control rescue, neutral wells zero; protection from apoptosis, % (concentration not given with the values); 300,000 compounds, 0.8% hits; AID 435005, 2010;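 active = all replicates at 75% or more, or half of them and the mean; inconclusive = half reach 75% but not the mean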;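 note: 0% = cytokine-treated negative control wells and 100% = positive control rescue; higher means more ATP so stronger rescue from cytokine killing; wells of about 40 µL received 100 nL stock; the first replicate is given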
ALR inh – inhibitors of human ALR sulfhydryl oxidase, primary screen, biochemical, H2O2 detection, HRP-luminol luminescence, single point | inhibition, % (test concentration not listed) | 290,000 compounds, 3.8% hits | purified ALR, DTT oxidation | FAD-linked sulfhydryl oxidase ALR (Homo sapiens), P55789;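 active = mean and each replicate at 75% or more; inconclusive = only one of the two met; inactive = neither met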;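 note: stock transfer was 7.5 nL into about 7.5 µL; 0% = neutral wells and 100% = wells with inactivated enzyme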
Target sequence (P55789 whole entry, looked up): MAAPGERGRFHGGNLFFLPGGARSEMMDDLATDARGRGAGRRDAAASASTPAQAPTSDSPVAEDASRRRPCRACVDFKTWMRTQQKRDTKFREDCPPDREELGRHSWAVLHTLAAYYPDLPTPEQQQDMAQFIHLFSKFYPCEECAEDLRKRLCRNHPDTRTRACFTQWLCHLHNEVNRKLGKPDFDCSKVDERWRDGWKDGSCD
LANA-H2A inh – blockers of LANA interaction with H2A/H2B – biochemical, FP readout, HTS, primary screen | Protein LANA1 (Human herpesvirus 8 type P (isolate GK18)), Q9QR71 | cell-free LANA-H2A/H2B peptide, fluorescence polarization | inhibition, % (concentration not given with the values) | 320,000 compounds, 0.6% hits | AID 2629, 2010; in the data active = inhibition mostly above about 10%, no sharp cut-off; inactive = mostly below about 6.7%;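 note: stock transfer was 7.5 nL into about 10 µL; 0% = median of vehicle wells and 100% = median of positive control wells; one replicate is shown; the record names a cut of 25% in any replicate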
Ecoli rRNA inh OD600 – further read-out of Ecoli rRNA inh, marked with its call; OD600 change, %; measured here: OD600 growth;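 optical density of the mix in the first replicate; 0 = DMSO median and -100 = no signal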
Ecoli rRNA inh RFP – further read-out of Ecoli rRNA inh, marked with its call; RFP signal change, %; measured here: RFP humanized mutant strains;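 first replicate; 0 = DMSO median and -100 = no signal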
* marks the source's active call; other numbers are inactive results; i = inactive; ? = inconclusive; nt = no result given. This is a subset; the hit share may differ from the screen's.

SMILES | Bfl-1 A1 inh | Ecoli rRNA inh | Ecoli rRNA inh OD600 | Ecoli rRNA inh RFP | T cruzi repl | B2AR ag | Calb FLC | Beta cell apopt | ALR inh | LANA-H2A inh
O=C(c1ccc2c(c1)OCCO2)C1CCN(C(=O)c2ccc(F)c(F)c2)CC1 | 0.4 | nt | nt | nt | 3 | 0 | 1 | 13 | -14 | -2.7
COc1cc(/C=N/NC(=O)C(=O)NCC2CCCO2)cc(Cl)c1O (stereo unspecified) | 0.0 | -4 | 0 | -0.5 | 9 | 3 | 2 | -5 | 45 | -1.9
C/C(=N/NC(=O)CNC(=O)c1ccncc1)c1ccc(Cl)cc1 | -0.3 | -6 | 4 | 0.9 | -8 | 2 | 0 | -1 | -4 | 2.1
CC(C)CC1Nc2ncnc(N3CCN(c4ccccc4)CC3)c2N(Cc2ccccc2)C1=O (stereo unspecified) | -0.4 | 10 | 15 | 14 | 25 | 5 | 9 | -3 | 4 | -0.2
COc1ccccc1CNC(=O)CN(C)Cc1ccc(SC)cc1 | 0.8 | -4 | -22 | -0.5 | -3 | 7 | -15 | -6 | -4 | -1.7
CCCCCn1c(=S)[nH]c2cc(C(=O)N3CCCC3)ccc2c1=O | 0.1 | 1 | 9 | 0.7 | 7 | 2 | 22 | 2 | 4 | -0.1
NC(=O)CSC1=Nc2ccccc2C2=NC(CC(=O)NCc3cccs3)C(=O)N12 (stereo unspecified) | -0.6 | nt | nt | nt | 0 | 0 | -7 | 3 | 15 | -3.0
CCOC(=O)C1CCN(Cc2nc3ccc(Cl)cc3n2CCO)CC1 | -0.3 | nt | nt | nt | -4 | 0 | 13 | -5 | -8 | -3.8
COc1cccc(NC(=O)Cn2cc(C=O)c3ccccc32)c1 | -0.7 | -1 | -3 | 2.5 | -7 | 0 | -4 | 5 | -15 | -3.3
CCOc1cc(CNCC(C)C)cc(Cl)c1OCc1ccccc1 | 0.5 | -53 | -78 | -23 | 47 | 6 | -69 | 3 | nt | 1.1
CCOC(=O)c1ccc2[nH]c3c(c2c1)CCCC3NC=O (stereo unspecified) | 0.8 | 3 | 11 | -1.4 | -9 | -7 | 4 | -10 | nt | 3.1
Cc1ccc(-n2c(SCC(=O)Nc3cccc(S(=O)(=O)NC4=NCCCCC4)c3)nc3ccccc3c2=O)cc1 | -0.3 | -2 | -7 | 4.8 | 18 | 0 | 17 | 5 | -20 | 7.2

Two of the compounds above, comma-delimited.
Structure,Bfl-1 A1 inh,Ecoli rRNA inh,Ecoli rRNA inh OD600,Ecoli rRNA inh RFP,T cruzi repl,B2AR ag,Calb FLC,Beta cell apopt,ALR inh,LANA-H2A inh
COc1cc(/C=N/NC(=O)C(=O)NCC2CCCO2)cc(Cl)c1O (stereo unspecified),0.0,-4,0,-0.5,9,3,2,-5,45,-1.9
CC(C)CC1Nc2ncnc(N3CCN(c4ccccc4)CC3)c2N(Cc2ccccc2)C1=O (stereo unspecified),-0.4,10,15,14,25,5,9,-3,4,-0.2

Following part:
SMILES | Bfl-1 A1 inh | Ecoli rRNA inh | Ecoli rRNA inh OD600 | Ecoli rRNA inh RFP | T cruzi repl | B2AR ag | Calb FLC | Beta cell apopt | ALR inh | LANA-H2A inh
O=C(Nc1nc2c(F)cc(F)cc2s1)c1ccco1 | -6.6 | -2 | -7 | -1.1 | -24 | -11 | 4 | 2 | nt | 9.9
CN(C)C(=O)c1cn(N(C)c2ncc(C(F)(F)F)cc2Cl)c(=O)c2ccccc12 | 0.2 | nt | nt | nt | 12 | 15 | 2 | -3 | nt | 6.9
Cc1onc(-c2ccccc2Cl)c1C(=O)NC1CCS(=O)(=O)C1 (stereo unspecified) | 0.3 | 15 | 12 | 3.0 | -7 | 17 | 9 | -1 | 96* | 3.5
CC(=O)c1ccc(N(CC(=O)NC2CCS(=O)(=O)C2)S(=O)(=O)c2ccc(C)cc2)cc1 (stereo unspecified) | -0.1 | 1 | 9 | -1.3 | nt | -12 | nt | -1 | -7 | 1.7
O=C(CSc1ccc2nnc(-c3ccncc3)n2n1)Nc1nccs1 | nt | 22 | 15 | -0.4 | -31 | -5 | ? | nt | nt | nt
Clc1cccc(Cl)c1Cn1cnc(=NCc2ccco2)c2[nH]cnc21 | 1.0 | nt | nt | nt | 11 | -2 | 24 | 9 | 25 | -0.2
N#CC1=C(N)SC(N)=C(C#N)C1C1CC=CCC1 (stereo unspecified) | -0.1 | nt | nt | nt | -5 | 4 | 3 | -3 | 4 | -1.9
CCn1ccnc1CN1CCN(CC(C)C)C(CCO)C1 (stereo unspecified) | 0.5 | 12 | 3 | 4.3 | -2 | 0 | 5 | -7 | -6 | -3.8
Cc1ccc(CN2CCNC(=O)C2CC(=O)N(C)C2CCCCC2)cc1 (stereo unspecified) | 0.0 | 4 | 6 | -0.2 | -1 | -1 | -2 | 3 | -8 | -0.2
O=c1cc(-c2ccsc2)oc2ccc(-c3ccc4cc[nH]c4c3)cc12 | -0.5 | 9 | 24 | 2.9 | nt | 13 | nt | 7 | -1 | 2.4
CN(C(=O)c1ccccc1-c1ncc[nH]1)C1CCCN(Cc2ccccc2F)C1 (stereo unspecified) | 0.2 | 12 | 3 | 1.1 | 13 | 10 | -4 | 4 | -3 | 4.3
C=CCn1c(=O)c(C(=O)NCc2ccc3c(c2)OCO3)c(O)c2cc(OC)c(OC)cc21 | -0.1 | 9 | 13 | 4.2 | -4 | -8 | 2 | nt | -5 | 3.6
C/C(=N\NC(=O)c1cc2c(s1)CCC(C)C2)c1cccnc1 (stereo unspecified) | -0.9 | -4 | -1 | -2.2 | -1 | -24 | 23 | 6 | -6 | 4.8
Cc1ccc(S(=O)(=O)NC(CC(C)C)C(=O)NCc2ccco2)cc1 (stereo unspecified) | 0.0 | nt | nt | nt | -13 | 1 | -9 | -1 | nt | 7.6
CNC1(C(N)=O)CCNCC1 | -0.6 | 6 | 9 | 3.1 | -5 | 1 | -8 | -5 | -15 | -5.7
O=C1CC[C@H](OCc2ccccc2)CCN1[C@H](CSc1ccccc1)Cc1ccccc1 | 0.2 | -25 | -37 | 35 | -4 | -2 | 14 | 3 | -6 | 0.2
CN(C(=O)COC(=O)CNC(=O)c1ccccc1F)C1CCCCC1 | -0.7 | -1 | 3 | -4.4 | 20 | 13 | -3 | -5 | -2 | -0.6
O=C(CC(c1ccccc1)c1ccccc1)NCC1CCCO1 (stereo unspecified) | -0.4 | nt | nt | nt | -3 | 9 | 17 | -5 | -17 | 6.1
NC(=O)c1ccccc1OCC(=O)N1CCc2ccccc2C1 | 0.1 | 12 | 23 | 4.1 | -8 | 13 | -1 | 9 | -7 | -4.4
COc1ccccc1-n1nnnc1SCC(=O)Nc1cc(C)on1 | -0.4 | nt | nt | nt | 11 | 4 | 1 | nt | -2 | -1.1
Cc1cc([N+](=O)[O-])ccc1NCc1ccccc1[N+](=O)[O-] | -0.1 | 13 | 12 | -1.6 | -5 | -2 | 7 | 4 | -3 | 8.7
COC(CNC(=O)c1ccc2nc(-c3ccccc3)c(-c3ccccc3)nc2c1)OC | 0.1 | -1 | 0 | 1.9 | 14 | 3 | 22 | -2 | -6 | -0.9
Cc1cc(NC(=O)CCC(=O)N(Cc2ccco2)C(C(=O)NC2CCCC2)c2ccccc2)no1 (stereo unspecified) | 0.6 | -4 | -1 | 0.1 | 7 | 7 | 5 | -10 | -8 | 2.0
Cc1ccc(S(=O)(=O)c2c(N)n(/N=C/c3ccco3)c3nc4ccccc4nc23)cc1 | 0.7 | nt | nt | nt | 78* | -11 | ? | 6 | -4 | 2.9
COc1ccc(CCC(=O)OCC(=O)Nc2ccc(C)c(S(=O)(=O)N(C)C)c2)cc1 | 0.0 | nt | nt | nt | -2 | 2 | 12 | 0 | -35 | -0.1
COCCCC1CCN(Cc2cn[nH]c2-c2cc(OC)c(OC)c(OC)c2)CC1 | 0.0 | 11 | 7 | -4.8 | -6 | -5 | -3 | 0 | -1 | -1.3
COC(=O)c1cc2c(-c3ccccc3)c(C)c3ccccn3c-2c1C(=O)OC | 0.0 | nt | nt | nt | 42 | -3 | 7 | 3 | nt | -9.1
Cc1nc(-c2ccc(S(=O)(=O)Nc3ccc(S(N)(=O)=O)cc3)cc2)co1 | 0.0 | 7 | 1 | 0.7 | -23 | 9 | 19 | -5 | 1 | -1.4
CCN(CC)C(=O)C1CCCN(Cc2ccccc2)C1 (stereo unspecified) | 1.4 | 19 | 3 | -2.0 | 16 | 0 | -6 | -13 | 1 | -4.8
Cc1[nH]c2ccccc2c1SCc1nnc(SCc2ccccc2)n1C | 0.9 | 10 | 3 | 0.6 | 18 | -1 | -3 | -6 | 3 | -0.8
CC[C@]12c3[nH]c4ccccc4c3CCN1C(=O)C(CC(=O)NCC13CC4CC(CC(C4)C1)C3)C[C@@H]2C(=O)N1CCN(C(=O)c2ccco2)CC1 (stereo partly specified) | 0.0 | 1 | 9 | 0.0 | nt | 8 | nt | 3 | -3 | i
O=C(NCc1ccccc1F)c1ccc(S(=O)(=O)N2CCCCCC2)cc1 | -0.1 | nt | nt | nt | nt | -1 | nt | 1 | -12 | 4.4
O=C(c1ccc2c(c1)OCO2)N1CCN(c2ccccc2)CC1 | 0.1 | nt | nt | nt | 0 | 6 | -1 | -3 | 98* | -0.6
COc1ccc(S(=O)(=O)N2CCOC2CNC(=O)C(=O)NCc2ccncc2)cc1OC (stereo unspecified) | -0.3 | 1 | 0 | 0.2 | -7 | -6 | 2 | -3 | -4 | 2.2
CC(=O)c1cc2c(cc1NC(=O)c1ccco1)OCCO2 | 0.5 | nt | nt | nt | 0 | -5 | 2 | -7 | -18 | -6.0
Cc1ccc(SCC(=O)OC(C)C(=O)N2CCc3ccccc32)cc1 (stereo unspecified) | -0.9 | -6 | -24 | -4.8 | -2 | -1 | -4 | -2 | -1 | -2.4
COc1ccccc1N1C(=O)C2CCC(c3ccccc3)CC2C1=O (stereo unspecified) | 0.2 | 3 | -3 | 0.1 | -22 | 3 | 9 | -10 | -2 | 2.4
O=c1c2sccc2n(Cc2cc(=O)n3ccccc3n2)c(=O)n1-c1ccccc1 | -0.2 | nt | nt | nt | -17 | -10 | 35 | -3 | -1 | 2.5
Cc1ccc(NC(=O)c2c(-c3c(F)cccc3Cl)noc2C)cc1F | -0.2 | nt | nt | nt | 1 | -23 | -21 | 96* | -8 | -4.3
CCCOc1ccc(N2C(=O)CC(N3CCN(c4ccccc4OC)CC3)C2=O)cc1 (stereo unspecified) | -0.3 | 0 | -3 | -0.3 | -3 | -1 | -2 | -1 | -3 | -0.1

Bioassay records: PubChem BioAssay, several laboratories
